Screens deposited in PubChem by National Center for Advancing Translational Sciences (NCATS).
D2 antagonist: D2 dopamine receptor (human) antagonism; inhibition, % at 10 µM; AID 485344; 340,000 tested, 2% active; HEK293 TREx D2 cells, calcium flux, dopamine EC80; P14416; in the data active = inhibition above about 30%; note: 0% is about no effect
Target sequence (P14416 whole entry, looked up): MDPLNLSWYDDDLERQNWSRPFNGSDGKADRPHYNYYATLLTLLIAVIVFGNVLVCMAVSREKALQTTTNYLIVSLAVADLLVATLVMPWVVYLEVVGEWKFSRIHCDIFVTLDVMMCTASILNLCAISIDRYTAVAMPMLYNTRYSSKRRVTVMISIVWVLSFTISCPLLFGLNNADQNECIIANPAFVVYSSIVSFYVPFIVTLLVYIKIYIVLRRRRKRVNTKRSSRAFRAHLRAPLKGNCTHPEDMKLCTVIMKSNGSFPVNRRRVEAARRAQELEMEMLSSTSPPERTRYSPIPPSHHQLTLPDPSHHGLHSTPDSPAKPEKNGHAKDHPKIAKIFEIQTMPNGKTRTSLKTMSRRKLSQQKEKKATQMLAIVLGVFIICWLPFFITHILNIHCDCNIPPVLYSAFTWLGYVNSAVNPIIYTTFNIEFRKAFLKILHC
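Tetracycline-induced HEK293 T-REx cells expressing D2 force-coupled to calcium signalling were dye-loaded, exposed to compound for 180 s, then challenged with an EC80 of dopamine; calcium flux was followed kinetically for a further 180 s.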
D1 potentiator: potentiators of human D1 dopamine receptor; 360,000 tested, 0.036% active; AID 504651; HEK293 TREx D1 cells, calcium flux, dopamine EC20 potentiation; P21728; potentiation, % at 10 µM; in the data active = potentiation above about 30%; note: 0% is about no effect
D1 antagonist: antagonists of human D1 dopamine receptor; P21728; 360,000 tested, 3.2% active; HEK293 TREx D1 cells, calcium flux, dopamine EC80; hits give low values; activity change, negative = inhibition, % at 10 µM; in the data active = activity change below about -30%; note: % is set by controls: 0 for no effect and ±100 for the full control effect
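Compound effects on dopamine-evoked calcium signalling were measured in tetracycline-induced HEK293 Trex D1 cells. Dopamine at EC80 followed a 180 s compound pre-read, and fluorescence was tracked kinetically for 180 s more.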
D2 potentiator: positive allosteric modulators of human D2 dopamine receptor; P14416; HEK293 T-REx D2, calcium flux, EC20 dopamine potentiation; potentiation, % at 10 µM; 340,000 tested, 0.34% active; AID 485347;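 active = potentiation over 3 SD above the plate norm, cut at about 30% in these data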; note: 0% is about no effect
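Tetracycline-induced HEK293 T-REx cells force-coupled to calcium signalling expressed D2; compounds were pin-added after a 10 s baseline, read kinetically 180 s, then an EC20 dopamine challenge followed with a further 180 s calcium read.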
RXFP1 antagonist: blocks the human relaxin receptor RXFP1; Q9HBX9; HEK293-RXFP1, relaxin-stimulated cAMP HTRF, 30 min; hits give low values; activity change, negative = inhibition, % at 57.5 µM; 350,000 tested, 0.59% active;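 active = activity change of -60% or lower, but not beyond a set lower limit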; note: % is set by controls: 0 for no effect and ±100 for the full control effect
D2 ag: D2 dopamine receptor (human) agonism | P14416 | HEK293 T-REx D2 cells, calcium flux agonist mode | activation, % at 2 µM | 340,000 tested, 0.53% active;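 active = activation over 3 SD above normal in the single-dose calcium agonist read, cut at about 30% in these data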; note: 0% is about no effect
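Calcium-flux readout, 1 cycle/sec over 180 s following compound pin transfer, in inducible HEK293 Trex D2 cells (force-coupled); dopamine controls included. Positive calcium responses during this window marked compounds as potential agonists.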
* = called active by the depositor; x = not tested or not shown; & = joins results of further samples. These rows are one share of the data; count on the stated rates, not on these rows.

Sequence of screens: D2 antagonist	D1 potentiator	D1 antagonist	D2 potentiator	RXFP1 antagonist	D2 ag
1) CC(N)C(=O)OC(C)(C)Cc1ccc(Cl)cc1 (stereo not drawn)
  -4	-7	1	-4	-12	-0.7
2) C[C@]12CC[C@@H](O)CC1=CCC1C2CC[C@@]2(C)C1CC[C@@H]2O (stereo partly drawn)
  x	x	x	x	-1	x
3) CCCOP(=O)(O)c1c([N+](=O)[O-])cc(C(F)(F)F)cc1[N+](=O)[O-] (tested in a mixture with another compound)
  -5	-1	3	6	-19	0.0
4) C=C(Cl)CSC(=S)N(CC)CC
  0	-2	x	10	x	-2.9
5) Cc1ccc(N)c(N)c1
  -7	-2	x	3	x	-1.0
6) CN(C)C1C(=O)C(C(N)=O)=C(O)C2(O)C(=O)C3=C(O)c4c(O)cccc4C(C)(O)C3C(O)C12 (stereo not drawn)
  8	3	1	14	x	0.0
7) NCC1(CC(=O)O)CCCCC1
  2	3	3	0	3	-3.1
8) CC(=O)c1c(O)n(-c2cccc(Cl)c2)c(=O)[nH]c1=O (tested in a mixture with another compound)
  -1	3	-10	4	2	0.8
9) O=C(Cc1ccccc1)OCc1ccccc1
  x	2	x	9	x	x
10) C[C@]12CC[C@@H](O)C[C@H]1CC[C@@H]1[C@@H]2CC[C@]2(C)C(=O)CC[C@@H]12
  -12	-5	26	9	x	2.0

Part of the list above in order of number of heavy atoms, high to low:
Sequence of screens: D2 antagonist	D1 potentiator	D1 antagonist	D2 potentiator	RXFP1 antagonist	D2 ag
6) CN(C)C1C(=O)C(C(N)=O)=C(O)C2(O)C(=O)C3=C(O)c4c(O)cccc4C(C)(O)C3C(O)C12 (stereo not drawn)
  8	3	1	14	x	0.0
10) C[C@]12CC[C@@H](O)C[C@H]1CC[C@@H]1[C@@H]2CC[C@]2(C)C(=O)CC[C@@H]12
  -12	-5	26	9	x	2.0
9) O=C(Cc1ccccc1)OCc1ccccc1
  x	2	x	9	x	x

Complete entries as entered above. Order of values: D2 antagonist | D1 potentiator | D1 antagonist | D2 potentiator | RXFP1 antagonist | D2 ag
C[C@]12CC[C@@H](O)C[C@H]1CC[C@@H]1[C@@H]2CC[C@]2(C)C(=O)CC[C@@H]12 across the screens: -12 | -5 | 26 | 9 | x | 2.0
CC(=O)c1c(O)n(-c2cccc(Cl)c2)c(=O)[nH]c1=O (tested in a mixture with another compound) across the screens: -1 | 3 | -10 | 4 | 2 | 0.8
CN(C)C1C(=O)C(C(N)=O)=C(O)C2(O)C(=O)C3=C(O)c4c(O)cccc4C(C)(O)C3C(O)C12 (stereo not drawn) across the screens: 8 | 3 | 1 | 14 | x | 0.0
CCCOP(=O)(O)c1c([N+](=O)[O-])cc(C(F)(F)F)cc1[N+](=O)[O-] (tested in a mixture with another compound) across the screens: -5 | -1 | 3 | 6 | -19 | 0.0
C[C@]12CC[C@@H](O)CC1=CCC1C2CC[C@@]2(C)C1CC[C@@H]2O (stereo partly drawn) across the screens: x | x | x | x | -1 | x

Further structures:
Screens by letter: A = D2 antagonist; B = D1 potentiator; C = D1 antagonist; D = D2 potentiator; E = RXFP1 antagonist; F = D2 ag
(11) OCCOCCO
  A = 1 | B = 14 | C = 15 | D = -6 | E = x | F = -0.5
(12) COC1=CC(=O)OC(/C=C/c2ccccc2)C1 (stereo not drawn)
  A = -37 | B = 6 | C = 16 | D = 9 | E = x | F = -1.9
(13) OCC1CO1 (stereo not drawn)
  A = 5 | B = -4 | C = x | D = 8 | E = x | F = 0.0
(14) C[C@]12CCC3C(CC[C@H]4C[C@H](O)CC[C@]34C)C1CCC2=O (stereo partly drawn)
  A = x | B = x | C = x | D = x | E = -2 | F = x
(15) OCCOc1ccccc1
  A = -6 | B = 0 | C = 7 | D = 6 | E = -2&-8 | F = -0.8
(16) Clc1ccc(CCC(Cn2ccnc2)Sc2c(Cl)cccc2Cl)cc1 (stereo not drawn)
  A = 8 | B = 6 | C = -54* | D = 9 | E = -12 | F = -1.5
(17) C[N+]1(C)[C@@H]2CC(OC(=O)[C@H](CO)c3ccccc3)C[C@H]1[C@@H]1O[C@@H]12 (stereo partly drawn)
  A = 22&-20 | B = -4&-2 | C = 5&-6 | D = 3&6 | E = -6 | F = -3.5&-2.3
(18) CN(C)[C@@H]1C(=O)C(C(N)=O)=C(O)[C@@]2(O)C(=O)C3=C(O)c4c(O)cccc4[C@@](C)(O)[C@H]3[C@H](O)[C@@H]12
  A = 29&-14&-5 | B = -2&-1&-2 | C = 7&6&5 | D = 19&13&3 | E = x | F = 2.1&-0.7&0.1
(19) CCOC(=O)c1cncn1[C@@H](C)c1ccccc1
  A = -10 | B = -4 | C = 7 | D = 3 | E = x | F = -1.8
